Screens (PubChem BioAssay)
Ecoli rRNA inh: inhibitors of bacterial rRNA selective over humanized ribosomes; E. coli WT GFP vs humanized-ribosome RFP mutants, fluorescence, 24 h; stronger effect = lower value; DMSO median 0, no signal -100; GFP signal change (wild-type ribosome), % (no concentration beside the values); actives 1.6% (n = 350,000);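 active = significant combined selectivity score with lowered wild-type GFP, culture density cut under 30%, mutant RFP and density less affected; inactive = any of these conditions unmet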; note: one replicate is shown; some compounds called inactive have numbers as strong as hits
Ecoli growth: E. coli growth inhibition; Escherichia coli growth, OD600, 23 h; stronger effect = lower value; AID 1053175; OD600 absorbance (concentration not given with the values); actives 0.21% (n = 330,000);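 active = OD600 absorbance below the run mean of sample wells minus 3.6 SD, in any replicate, cut at about 0.56 in these data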;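 note: stock transfer was 300 nL into about 60 µL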
Beta2AR agonist: activates human beta-2 adrenergic receptor causing internalization | Am2.2-beta2AR cells, FAP receptor internalization, flow cytometry; reference of the scale not given here | response, % (concentration not given with the values) | P07550 | actives 0.43% (n = 340,000);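 active = response above a set limit, near 3 SD of response in nonfluorescent compounds, cut at about 42% in these data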;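 note: stock transfer was 100 nL into about 11 µL; a reference agonist was the positive control; negative values mostly stem from fluorescent compounds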
Target sequence (P07550 whole entry, looked up): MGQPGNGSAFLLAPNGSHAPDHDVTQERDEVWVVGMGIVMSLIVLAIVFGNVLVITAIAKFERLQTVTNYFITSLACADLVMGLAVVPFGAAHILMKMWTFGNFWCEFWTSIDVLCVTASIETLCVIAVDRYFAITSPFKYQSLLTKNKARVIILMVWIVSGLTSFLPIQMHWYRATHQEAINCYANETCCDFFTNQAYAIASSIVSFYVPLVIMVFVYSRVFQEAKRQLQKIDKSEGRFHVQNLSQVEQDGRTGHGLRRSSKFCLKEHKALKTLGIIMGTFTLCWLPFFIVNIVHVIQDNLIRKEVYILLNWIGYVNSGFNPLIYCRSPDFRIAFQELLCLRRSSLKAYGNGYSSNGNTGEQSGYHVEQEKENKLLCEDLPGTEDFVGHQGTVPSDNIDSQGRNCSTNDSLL
FGF22 binding: FGF22 (human) thermal shift binding; Q9HCT0; actives 1.5% (n = 340,000); calls only at 9.99 µM; recombinant FGF22 thermal shift, SYPRO orange fluorescence; percent of sucrose octasulfate shift, DMSO zero;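 active = melting point raised past a set limit in the mean and every replicate; three in four hits are not shown here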
Target sequence (Q9HCT0 whole entry, looked up): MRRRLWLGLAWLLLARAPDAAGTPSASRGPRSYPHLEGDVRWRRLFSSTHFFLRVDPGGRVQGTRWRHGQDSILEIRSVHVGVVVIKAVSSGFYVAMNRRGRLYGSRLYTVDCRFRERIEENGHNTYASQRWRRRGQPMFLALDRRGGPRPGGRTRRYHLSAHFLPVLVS
HNF4A DNA FP: change in binding of human HNF4 alpha to DNA | P41235 | HNF4a-FITC DNA binding, fluorescence polarization, 1 h | activity change, % at 10 µM | actives 0.3% (n = 360,000) | AID 1224865; in the data active = activity change above about 30%, passing the limit was not always enough;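 note: controls were the assay level and a saturating level of protein; the project sought stronger binding though the title names inhibitors; some compounds called inactive have numbers as strong as hits; positive values seem to mean higher polarization but the record does not say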
Target sequence (P41235 whole entry, looked up): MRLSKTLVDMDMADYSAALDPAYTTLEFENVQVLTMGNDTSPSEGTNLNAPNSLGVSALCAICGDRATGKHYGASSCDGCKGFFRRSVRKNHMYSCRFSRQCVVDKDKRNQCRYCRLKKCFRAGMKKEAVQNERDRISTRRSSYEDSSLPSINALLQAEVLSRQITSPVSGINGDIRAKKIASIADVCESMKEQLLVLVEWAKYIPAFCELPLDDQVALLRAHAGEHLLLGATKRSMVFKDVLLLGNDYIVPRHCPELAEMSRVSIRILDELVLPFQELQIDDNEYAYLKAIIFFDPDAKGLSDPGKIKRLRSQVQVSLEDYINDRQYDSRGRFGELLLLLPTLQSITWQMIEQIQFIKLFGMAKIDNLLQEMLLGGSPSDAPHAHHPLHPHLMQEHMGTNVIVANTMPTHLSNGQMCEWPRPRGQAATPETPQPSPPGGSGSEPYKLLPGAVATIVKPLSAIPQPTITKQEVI
ALR inh: human ALR oxidase inhibition via reduced H2O2. purified ALR, DTT oxidation, H2O2 HRP-luminol luminescence. P55789. inhibition, % (concentration not given with the values). actives 3.8% (n = 290,000);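 active = mean and each replicate at 75% or more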;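 note: stock transfer was 7.5 nL into about 7.5 µL; 0% = neutral wells and 100% = wells with inactivated enzyme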
UCH37 inh: inhibitors of human deubiquitinating enzyme UCH37. Q9Y5K5. purified proteasome/UCH37, Ub-AMC cleavage fluorescence. inhibition, % (no concentration beside the values). actives 0.33% (n = 330,000). AID 588478;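 active = mean of two replicates above 20%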;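 note: 0% = compound-free wells with enzyme and 100% = wells lacking proteasome; stock transfer was 100 nL into about 20 µL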
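Reagent: Ub-AMC substrate; assay system: Proteasome-associated human UCH37 deubiquitinase; controls: no-proteasome and no-compound wells; read-out: % inhibition of Ub-AMC cleavage fluorescence; timing: 30 min preincubation with enzyme, 25 min cleavage at room temperature; signal: AMC fluorescence from Ub-AMC cleavage, excitation 355 nm, emission 460 nm; buffer or medium: Tris-HCl pH 7.4 plus ovalbumin, ATP-MgCl2, DTT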
Ecoli rRNA inh OD600: further read-out of Ecoli rRNA inh, marked with its call; OD600 change, %; measured here: OD600 growth;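 optical density of the mix in the first replicate; 0 = DMSO median and -100 = no signal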
Ecoli rRNA inh RFP: second read-out of Ecoli rRNA inh, no call of its own (marks repeat the call); RFP signal change, %; measured here: RFP humanized mutant strains;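 first replicate; 0 = DMSO median and -100 = no signal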
The depositor's hits bear a star.

What do the screens show for `CC(C)(C)n1ncc2c(=O)n(Cc3c(Cl)cccc3Br)cnc21`?
Ecoli rRNA inh: -26; Ecoli growth: 0.71; Beta2AR agonist: 15; FGF22 binding: inactive; HNF4A DNA FP: 2.5; ALR inh: 3; UCH37 inh: 0.1; Ecoli rRNA inh OD600: -32; Ecoli rRNA inh RFP: -4.6

What do the screens show for `O=C(Nc1nc(NC(=O)c2ccco2)n(-c2ccccc2)n1)c1ccccc1`?
Ecoli growth: 0.74; Beta2AR agonist: 10; HNF4A DNA FP: 0.0; ALR inh: -5; UCH37 inh: -369

Results for CN(C)CCN(C(=O)c1ccc2ccccc2c1)c1nc2ccc(F)cc2s1 ?
Ecoli growth: 0.71; Beta2AR agonist: -5; HNF4A DNA FP: 0.0; ALR inh: -3; UCH37 inh: -2.2

Results for COc1ccc2c(COC(=O)c3cccc(S(=O)(=O)NCC(C)C)c3)cc(=O)oc2c1 ?
Ecoli rRNA inh: -7; Ecoli growth: 0.67; Beta2AR agonist: -3; FGF22 binding: inactive; HNF4A DNA FP: -1.3; UCH37 inh: -64; Ecoli rRNA inh OD600: -6; Ecoli rRNA inh RFP: 7.4

How did C=CCn1c(=O)c2ccccc2n2c(SCC(=O)N(C)C)nnc12 do in these assays?
Ecoli rRNA inh: -3; Ecoli growth: 0.65; Beta2AR agonist: -13; FGF22 binding: inactive; HNF4A DNA FP: 2.6; UCH37 inh: 1.1; Ecoli rRNA inh OD600: 1; Ecoli rRNA inh RFP: 0.7

What do the screens show for `COc1cc(C(=S)N2CCN(C)CC2)ccc1OCC(=O)NCc1ccccc1`?
Ecoli rRNA inh: 4; Ecoli growth: 0.65; Beta2AR agonist: -13; FGF22 binding: inactive; HNF4A DNA FP: 0.2; ALR inh: -7; UCH37 inh: 1.2; Ecoli rRNA inh OD600: 0; Ecoli rRNA inh RFP: -0.1

How did N/C(=N\c1nc2ccccc2o1)NC(=O)c1ccc(F)cc1 do in these assays?
Ecoli growth: 0.69; Beta2AR agonist: 21; HNF4A DNA FP: 2.5; ALR inh: -13; UCH37 inh: -1.9

How did CCCCN(C(=O)c1cnc(C)cn1)c1c(N)n(CCC)c(=O)[nH]c1=O do in these assays?
Ecoli rRNA inh: 11; Ecoli growth: 0.6; Beta2AR agonist: 2; FGF22 binding: inactive; HNF4A DNA FP: 0.6; ALR inh: 3; UCH37 inh: 2.1; Ecoli rRNA inh OD600: 16; Ecoli rRNA inh RFP: -0.3

Results for Cc1cccc(Cn2cnc3c(nnn3Cc3ccccc3F)c2=O)c1 ?
Ecoli growth: 0.62; Beta2AR agonist: 6; HNF4A DNA FP: 2.6; UCH37 inh: 4.6

How did CCc1cccc(OCC(=O)Nc2cc(Cl)ccc2-n2cncn2)c1 do in these assays?
Ecoli rRNA inh: 3; Ecoli growth: 0.63; Beta2AR agonist: 2; FGF22 binding: inactive; HNF4A DNA FP: 4.2; ALR inh: 36; UCH37 inh: -0.3; Ecoli rRNA inh OD600: -15; Ecoli rRNA inh RFP: -2.2

What do the screens show for `CC1(C)CC(NCCC(c2ccccc2)c2ccco2)CCO1` (stereo not drawn)?
Ecoli rRNA inh: 9; Ecoli growth: 0.72; Beta2AR agonist: -9; FGF22 binding: inactive; HNF4A DNA FP: 1.1; ALR inh: -4; UCH37 inh: 1.4; Ecoli rRNA inh OD600: 5; Ecoli rRNA inh RFP: -3.6

Results for CCOC(=O)Cc1nnc(NC(=O)CC)s1 ?
Ecoli growth: 0.69; Beta2AR agonist: -2; HNF4A DNA FP: 3.6; ALR inh: 3; UCH37 inh: -0.2

Results for CC(=O)NCCC(=O)NCC1(N(C)Cc2ccccc2)Cc2ccccc2C1 ?
Ecoli rRNA inh: -4; Ecoli growth: 0.68; Beta2AR agonist: -1; FGF22 binding: inactive; HNF4A DNA FP: 3.1; ALR inh: -1; UCH37 inh: 2.2; Ecoli rRNA inh OD600: 0; Ecoli rRNA inh RFP: 0.2

How did Cc1cccc(-c2nc(C#N)c(N3CCC(C)CC3)o2)c1 do in these assays?
Ecoli rRNA inh: -15; Ecoli growth: 0.68; Beta2AR agonist: 8; FGF22 binding: inactive; HNF4A DNA FP: -2.4; ALR inh: -3; UCH37 inh: 4.0; Ecoli rRNA inh OD600: -14; Ecoli rRNA inh RFP: -2.1

How did CCOC(=O)C1=C(c2ccccc2)O/C(=C(/C(=O)OC)C(F)(F)F)S1 do in these assays?
Ecoli rRNA inh: 6; Ecoli growth: 0.7; Beta2AR agonist: 19; FGF22 binding: inactive; HNF4A DNA FP: 1.5; ALR inh: -2; UCH37 inh: -0.8; Ecoli rRNA inh OD600: 3; Ecoli rRNA inh RFP: 3.1

How did CCOC(=O)N1CCN(S(=O)(=O)N(C)C)CC1 do in these assays?
Ecoli growth: 0.72; Beta2AR agonist: -3; HNF4A DNA FP: -2.5; ALR inh: 7; UCH37 inh: 4.2

Results for COc1ccc(C(C)=O)cc1CSc1ccc2c(c1)OCCO2 ?
Ecoli rRNA inh: -58; Ecoli growth: 0.6; Beta2AR agonist: -18; FGF22 binding: inactive; HNF4A DNA FP: 0.8; ALR inh: -1; UCH37 inh: 2.7; Ecoli rRNA inh OD600: -69; Ecoli rRNA inh RFP: -16

What do the screens show for `C/C(=N\NC(=O)CSc1nc2ccccc2c(=O)n1-c1ccccc1C)c1cccs1`?
Ecoli rRNA inh: 10; Beta2AR agonist: -3; FGF22 binding: inactive; HNF4A DNA FP: -0.3; ALR inh: -4; Ecoli rRNA inh OD600: 6; Ecoli rRNA inh RFP: 2.9

Results for CN(CCCNC(=O)c1cc2c(=O)[nH]c3ccccc3c2n1C)Cc1ccccc1 ?
Ecoli rRNA inh: -7; Ecoli growth: 0.66; Beta2AR agonist: -4; FGF22 binding: inactive; HNF4A DNA FP: 1.1; ALR inh: 0; UCH37 inh: -6.3; Ecoli rRNA inh OD600: -11; Ecoli rRNA inh RFP: -2.9

Results for CCn1c2ccccc2c2nnc(SCc3ccccc3)nc21 ?
Ecoli rRNA inh: -14; Ecoli growth: 0.79; Beta2AR agonist: -13; FGF22 binding: inactive; HNF4A DNA FP: 1.4; ALR inh: -2; UCH37 inh: 1.9; Ecoli rRNA inh OD600: -25; Ecoli rRNA inh RFP: -4.9

What do the screens show for `O=C(NC1CCN(S(=O)(=O)c2ccc(F)cc2)CC1)c1cccnc1`?
Ecoli rRNA inh: 11; Ecoli growth: 0.68; Beta2AR agonist: 1; FGF22 binding: inactive; HNF4A DNA FP: 0.2; ALR inh: -2; UCH37 inh: 3.0; Ecoli rRNA inh OD600: 7; Ecoli rRNA inh RFP: -0.9

How did O=C(Nc1ccccc1Oc1cccnc1)C1CCCN(C/C=C/c2ccccc2)C1 (stereo not drawn) do in these assays?
Ecoli rRNA inh: 1; Ecoli growth: 0.68; Beta2AR agonist: -17; FGF22 binding: inactive; HNF4A DNA FP: 0.6; ALR inh: -4; UCH37 inh: 3.6; Ecoli rRNA inh OD600: 3; Ecoli rRNA inh RFP: -0.3

How did O=C(O)c1cccc(S(=O)(=O)Nc2cccc(S(=O)(=O)N3CCCC3)c2)c1 do in these assays?
Ecoli growth: 0.69; Beta2AR agonist: 2; FGF22 binding: inactive; HNF4A DNA FP: -6.4; ALR inh: -1; UCH37 inh: 1.3

What do the screens show for `O=S(=O)(NCCc1ccccc1)c1ccc(-n2cnnn2)cc1`?
Ecoli rRNA inh: -7; Ecoli growth: 0.68; Beta2AR agonist: 2; FGF22 binding: inactive; HNF4A DNA FP: -2.6; ALR inh: 0; UCH37 inh: 2.1; Ecoli rRNA inh OD600: -4; Ecoli rRNA inh RFP: 2.9

What do the screens show for `O=C(c1ccc(Cl)c(S(=O)(=O)N2CCCCC2)c1)N1CCCC1`?
Ecoli rRNA inh: 4; Ecoli growth: 0.71; Beta2AR agonist: -20; FGF22 binding: inactive; HNF4A DNA FP: -1.2; ALR inh: -1; UCH37 inh: -0.3; Ecoli rRNA inh OD600: 1; Ecoli rRNA inh RFP: 1.0

Results for COc1cccc(CN2CCCC(C(=O)c3ccc4c(c3)OCO4)C2)c1O (stereo not drawn) ?
Ecoli rRNA inh: 2; Ecoli growth: 0.64; Beta2AR agonist: -9; FGF22 binding: inactive; HNF4A DNA FP: 1.0; ALR inh: 62; UCH37 inh: 2.3; Ecoli rRNA inh OD600: 1; Ecoli rRNA inh RFP: 1.8

What do the screens show for `CC(=O)NCCCNc1ccc([N+](=O)[O-])cc1`?
Ecoli growth: 0.67; Beta2AR agonist: 4; HNF4A DNA FP: 1.1; ALR inh: -11; UCH37 inh: 9.8

What do the screens show for `N#Cc1ccccc1Cn1cc(/C=N/Nc2ccc([N+](=O)[O-])cn2)c2ccccc21`?
Ecoli rRNA inh: 7; Beta2AR agonist: -105; FGF22 binding: inactive; HNF4A DNA FP: 25; ALR inh: -6; Ecoli rRNA inh OD600: 8; Ecoli rRNA inh RFP: 3.5

Results for CCN1CCN(CCC(=O)Nc2cccc(OC)c2)CC1 ?
Ecoli growth: 0.66; Beta2AR agonist: 5; HNF4A DNA FP: 0.9; ALR inh: -6; UCH37 inh: 0.9

Results for CN(C)C(CNC(=S)Nc1ccc(F)cc1)c1cccnc1 (stereo not drawn) ?
Ecoli rRNA inh: 22; Ecoli growth: 0.65; Beta2AR agonist: -1; FGF22 binding: inactive; HNF4A DNA FP: 1.5; ALR inh: -3; UCH37 inh: -0.1; Ecoli rRNA inh OD600: 20; Ecoli rRNA inh RFP: 0.8

Results for Cc1ccc(NC(=O)C2=C(c3ccccc3)S(=O)(=O)CCS2(=O)=O)cc1 ?
Ecoli rRNA inh: -16; Ecoli growth: 0.63; Beta2AR agonist: 53*; FGF22 binding: inactive; HNF4A DNA FP: -0.2; ALR inh: 24; UCH37 inh: 3.5; Ecoli rRNA inh OD600: 31; Ecoli rRNA inh RFP: 16

What do the screens show for `C=CCNC(=O)c1cc2cccc(OC)c2oc1=O`?
Ecoli rRNA inh: 7; Ecoli growth: 0.7; Beta2AR agonist: 1; FGF22 binding: inactive; HNF4A DNA FP: 11; ALR inh: -4; UCH37 inh: -4.3; Ecoli rRNA inh OD600: 3; Ecoli rRNA inh RFP: 0.6

What do the screens show for `CCOC(=O)/C=c1\s/c(=C\c2ccc(C(=O)OC)cc2)c(=O)n1CC(=O)Nc1ccccc1`?
Ecoli rRNA inh: 6; Beta2AR agonist: 2; FGF22 binding: inactive; HNF4A DNA FP: 7.6; ALR inh: -3; Ecoli rRNA inh OD600: 12; Ecoli rRNA inh RFP: -2.7

What do the screens show for `COc1cc(C(=O)N2CCC2(C)C(=O)O)cc(OC)c1OC` (stereo not drawn)?
Ecoli rRNA inh: 8; FGF22 binding: inactive; HNF4A DNA FP: -2.8; Ecoli rRNA inh OD600: 10; Ecoli rRNA inh RFP: -2.5

How did Cc1ccc(C)c(OCC(=O)Nc2nc3ccc([N+](=O)[O-])cc3s2)c1 do in these assays?
Ecoli growth: 0.65; Beta2AR agonist: 0; HNF4A DNA FP: 1.7; ALR inh: -1; UCH37 inh: 1.2

Quoted at random: two records from the list, in no set order.
What do the screens show for `O=C(c1ccc(Cl)c(S(=O)(=O)N2CCCCC2)c1)N1CCCC1`?
Ecoli rRNA inh: 4; Ecoli growth: 0.71; Beta2AR agonist: -20; FGF22 binding: inactive; HNF4A DNA FP: -1.2; ALR inh: -1; UCH37 inh: -0.3; Ecoli rRNA inh OD600: 1; Ecoli rRNA inh RFP: 1.0

Results for Cc1ccc(NC(=O)C2=C(c3ccccc3)S(=O)(=O)CCS2(=O)=O)cc1 ?
Ecoli rRNA inh: -16; Ecoli growth: 0.63; Beta2AR agonist: 53*; FGF22 binding: inactive; HNF4A DNA FP: -0.2; ALR inh: 24; UCH37 inh: 3.5; Ecoli rRNA inh OD600: 31; Ecoli rRNA inh RFP: 16

A portion of the library. The share of hits here may be higher or lower than overall.
